From PubChem
SENP8 block-1: human SENP8 protease inhibitors, primary screen, biochemical, fluorescence, Nedd8 protein substrate, uHTS. AID 602440, 2012. inhibition, % at 20 µM. Sentrin-specific protease 8 (Homo sapiens), Q96LD8. recombinant SENP8. 0.64% of 360,000 active; in the data active means inhibition mostly above about 40%, no sharp cut-off; inactive means mostly below about 27%
Target sequence (Q96LD8 whole entry, looked up): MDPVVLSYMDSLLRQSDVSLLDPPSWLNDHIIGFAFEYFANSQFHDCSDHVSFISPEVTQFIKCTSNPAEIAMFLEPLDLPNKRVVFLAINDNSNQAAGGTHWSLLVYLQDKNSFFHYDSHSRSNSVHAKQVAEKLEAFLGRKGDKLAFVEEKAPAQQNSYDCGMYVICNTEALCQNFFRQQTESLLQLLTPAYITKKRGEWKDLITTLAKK
HKDC1 inhibitor: HKDC1 hexokinase inhibitors, primary screen, biochemical, fluorescence, uHTS; inhibition, % at 20 µM; recombinant HKDC1, G6PDH/diaphorase resazurin coupled fluorescence; 0.16% of 340,000 active; Q2TB90;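 active means inhibition above about 35% when tested at 20 µM, limit read from the data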;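 further: plate controls were DMSO wells with enzyme for no effect and DMSO wells lacking enzyme for full effect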
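Assay system: in-house recombinant HK5 (HKDC1) enzyme. Input: HKDC1 at 5 µg/mL. Medium: Tris pH 8.0 buffer with MgCl2, Tween-20, BSA, BME. Dosing: single 20 µM dose. Schedule: 90 min reaction incubation at room temperature, dark. Signal: resazurin-to-resorufin fluorescence via G6PDH and diaphorase coupling, 525/613 nm. Controls: DMSO-enzyme wells negative, buffer-substituted wells positive.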
SENP8 block-2: SENP8 protease inhibitors, primary screen, biochemical, luminescence; purified SENP8, Z-RLRGG-aminoluciferin cleavage; Sentrin-specific protease 8 (Homo sapiens), Q96LD8; 1.2% of 330,000 active; inhibition, % at 10 µM; AID 2540, 2010; in the data active means inhibition above about 50%
SENP6 inh: SENP6 protease inhibitors, primary screen, biochemical, luminescence, uHTS; 1.8% of 330,000 active; Recombinant SENP6 catalytic domain, aminoluciferin luminescence; AID 2599, 2010; Sentrin-specific protease 6 (Homo sapiens), Q9GZR1; inhibition, % at 10 µM;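 active means inhibition above about 50% at the single tested dose, limit read from the data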;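 further: plate controls were DMSO wells with enzyme for no effect and DMSO wells lacking enzyme for full effect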
SENP1 inh: human SENP1 catalytic domain inhibitors, primary screen, biochemical, FRET, uHTS. Sentrin-specific protease 1 (Homo sapiens), Q9P0U3. recombinant SENP1 catalytic domain, CyPet-SUMO1-YPet FRET cleavage. inhibition, % at 10 µM. 0.21% of 360,000 active. AID 624204, 2012;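 active means inhibition at least 30% at 10 µM, raw YFP signal under a set limit, fluorescence ratio 0.5 to 1.5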;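 further: 0% = enzyme with DMSO and 100% = no enzyme wells; some results filed as inactive read as strong as hits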
Target sequence (Q9P0U3 419-644 limits assumed): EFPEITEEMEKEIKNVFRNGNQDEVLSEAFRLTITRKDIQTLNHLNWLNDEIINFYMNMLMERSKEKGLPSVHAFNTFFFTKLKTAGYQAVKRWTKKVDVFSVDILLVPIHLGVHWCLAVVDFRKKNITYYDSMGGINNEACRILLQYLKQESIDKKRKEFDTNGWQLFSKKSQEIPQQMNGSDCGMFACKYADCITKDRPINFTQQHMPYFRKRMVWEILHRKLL
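Test system: recombinant human SENP1 catalytic domain, His6-tagged / Medium: pH 8 Tris buffer with EDTA, NaCl, BME, BSA, NP40, catalase / Also added: SUMO1 FRET substrate flanked by Cypet and Ypet, 25 nM / Times: 50 min reaction at room temperature / Signal: FRET, CFP and YFP emission / Control set: no-enzyme low control and enzyme-plus-DMSO high control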
PfG6PD inh: PfG6PD enzyme inhibitors, primary screen, biochemical, fluorescence intensity, uHTS; 0.78% of 350,000 active; PfGluPho enzyme, NADPH resazurin-diaphorase fluorescence; inhibition, % at 20 µM; glucose-6-phosphate dehydrogenase-6-phosphogluconolactonase (Plasmodium falciparum 3D7);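 active means inhibition reaching at least a set limit at 20 µM in the primary screen, cut at about 59% in these data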;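 further: 0% = DMSO wells with substrate and 100% = DMSO wells lacking glucose-6-phosphate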
SENP7 inh: SENP7 protease inhibitors, primary screen, biochemical, luminescence, uHTS | Sentrin-specific protease 7 (Homo sapiens), Q9BQF6 | inhibition, % at 5 µM | 1.5% of 330,000 active | recombinant SENP7, Z-RLRGG-aminoluciferin luminescence, 40 min;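 active means inhibition above about 50% at the single test dose, limit read from the data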;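 further: plate controls were DMSO with enzyme for no effect and no enzyme buffer wells for full effect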
Target sequence (Q9BQF6 706-1050 limits assumed): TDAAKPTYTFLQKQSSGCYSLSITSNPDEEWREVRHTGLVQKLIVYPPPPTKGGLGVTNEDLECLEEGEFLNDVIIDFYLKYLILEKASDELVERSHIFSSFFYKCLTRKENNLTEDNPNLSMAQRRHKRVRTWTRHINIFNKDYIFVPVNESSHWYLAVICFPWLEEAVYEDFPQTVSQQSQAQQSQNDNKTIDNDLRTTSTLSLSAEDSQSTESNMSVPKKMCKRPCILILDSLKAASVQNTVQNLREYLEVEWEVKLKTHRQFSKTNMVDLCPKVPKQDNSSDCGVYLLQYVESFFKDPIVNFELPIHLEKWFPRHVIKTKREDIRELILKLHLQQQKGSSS
Starred values were filed as active, the others as inactive; i = inactive; · = not tested or not shown; & = joins results of further samples. These rows are one share of the data, so the mix of outcomes need not match the whole.

SMILES	SENP8 block-1	HKDC1 inhibitor	SENP8 block-2	SENP6 inh	SENP1 inh	PfG6PD inh	SENP7 inh
CC1=C(C#N)C(C)C2=C(CC(C)(C)CC2=O)N1 (centres undefined)	i	3	6	-13	-102	2	-2
Nc1cccc([N+](=O)[O-])c1	20	-3	-10	-22	0	-9	-10
COc1ccc(-c2cc3ccc(OCc4nn[nH]n4)cc3oc2=O)cc1	-276	3	40	69*	-83	-5	51*
CCCNC(=O)c1c(N)n(-c2cccc(OC)c2)c2nc3ccccc3nc12	-276	3	4	4	-31	15	13
COCCN(CCOC)C(=O)c1cc2c(=O)n3ccccc3nc2s1	-322	-5	-6	9	-35	-4	10
CCOC(=O)c1cc2n(c1N)-c1ccccc1C2=O	-25	0	6	3	-9	39	4
CN1/C(=C\C(=O)c2ccco2)C(C)(C)c2ccccc21	-300	-2	2	-24	-23	31	6
NC(=O)c1c(NC(=O)c2cccs2)sc2c1CCCCCC2	-167	-6	-7	10	-5	23	3
Cc1ccc(S(=O)(=O)c2cc3c(=O)n4ccccc4nc3n(Cc3ccco3)c2=N)cc1C	·	8	1	2	·	-3	6
COc1ccc(Cn2nnnc2CN(Cc2cc3ccc(C)cc3[nH]c2=O)C2CCCC2)cc1	-5	-3	-7	-67	-2	5	-17
CN1CCc2c(sc3c2C(=O)NC(/C=C/c2ccco2)N3)C1 (centres undefined)	-144	-1	-3	-1	-20	42	5
CCOc1ccc(CCNC(=O)C2CCN(c3ccc(N4CCOCC4)nn3)CC2)cc1OCC	-320	-5	-4	-6	-45	15	-1
O=C(O)COc1ccc2nsnc2c1Cl	-415	-1	3	-4	-31	-5	11
N#Cc1c(NCCCO)nc(NCc2ccccc2)c2c1CCN(Cc1ccccc1)C2	i	9	12	21	-17	24	2
CC(C)NC[C@H](O)COc1cccc2ccccc12	12	1	1	0	-1	-1	8
CCOCCCn1c(=NC(C)=O)c(C(=O)OCC)cc2c(=O)n3ccccc3nc21	-72	-7&-7	-2	-9	-12&-26	-2&-1	0
CCN1CCCC1CN=Cc1c(O)n(-c2ccccc2)c(=O)c2ccccc12 (centres undefined)	-141	-4	-13	-8	-30	10	-3
CCOC(=O)N1CCN(Cc2nc3c(c(=O)n(C)c(=O)n3C)n2Cc2ccc(F)cc2)CC1	-5	-5	8	-6	-2	-8	-6
Cc1ccc(C2C=C(c3ccccc3OC(F)F)Nc3ncnn32)cc1 (centres undefined)	-430	-1	5	-12	5	6	7
CN1CCc2c(sc3c2c(NCc2ccco2)nc2nnnn23)C1	-329	8	10	22	-88	42	9
CCOC(=O)NC(=O)CSc1nc(C)cc(C)c1C#N	-113	-1	0	-10	-32	10	2
Cc1cccn2c(=O)c(C=NCc3ccccc3)c(NCCO)nc12	-239	-7	-8	-9	-30	11	-14
CCCC(c1nnnn1CC(=O)OCC)N(Cc1cc2ccc(C)cc2[nH]c1=O)C1CCCC1 (centres undefined)	-118	-5	-2	4	-13	-9	8
CCOC(=O)c1cc(-c2ccc3c(c2)OCO3)nc2onc(C)c12	-290	-4	7	-6	-50	-9	-2
COC(=O)c1cc(-c2ccc3c(c2)OCO3)nc2ccccc12	-412	1	-2	-4	-13	6	3
COc1ccc2oc(=O)c(-c3nnc(NCc4ccco4)s3)cc2c1	-304	6	-2	-16	-21	6	-1
CC(C)C(NS(=O)(=O)c1ccc2c3c(cccc13)C(=O)N2)C(=O)O (centres undefined)	-396	0	6	-6	-44	3	1
C=C(CC)C(=O)c1ccc(OCC(=O)O)c(Cl)c1Cl	10	6	2	-4	2	-13	1
CCCn1c(=NC(C)=O)c(C(=O)OCC)cc2c(=O)n3ccccc3nc21	-290	-2	-2	-8	-21	-10	1
C1=C(N2CCOCC2)/C(=C/c2nc3ccccc3[nH]2)CC1	-314	4	6	4	-26	2	1
CSc1ccccc1NC(=O)c1c(C)noc1C	14	-6	9	-8	2	-4	-6
O=C(c1cccn2c(=O)c3ccc(Cl)cc3nc12)N1CCN(Cc2ccc3c(c2)OCO3)CC1	-327	2	14	-5	-82	0	0
Cc1ccc(S(=O)(=O)C(C#N)c2nc3ccccc3nc2N2CCCC2)cc1C (centres undefined)	-376	1	18	76*	-25	17	24
Cc1ccc(N2C(=O)c3ccc(N)cc3C2=O)cc1	-104	-1	5	13	-26	-1	23
O=C(COC(=O)c1cc(-c2cccs2)nc2ccccc12)NCc1ccco1	-409	2	10	7	-17	-1	11
CCC(=O)Nc1ccc(NC(=O)CSc2nnnn2C(C)C)cc1	17	4	0	0	0	-2	-5
Cn1c(C(=O)NCc2ccccn2)cc2c(=O)n3ccccc3nc21	-287	-9	-5	5	-108	-5	0
O=C(C1CCN(c2ccc(N3CCOCC3)nn2)CC1)N1CCN(c2ccc(F)cc2)CC1	-282	-6	2	16	-47	-3	-1
Cc1cc(C)c2c(N)c(C(=O)Nc3nccs3)sc2n1	-264	5	-3	9	-19	40	1
Cc1cccc(CCN2CCC(C(=O)c3ccc(NS(C)(=O)=O)cc3)CC2)n1	·	·	-2	-6	·	·	-11
CCOC(=O)c1cc2c(=O)n3ccccc3nc2n(CC(C)C)c1=NC(=O)c1ccco1	-351	-2	-13	1	-16	-4	-8
COc1cc2c3c(c1)/C(=C1/SC(NC(C)=O)=NC1=O)C(=O)N3C(C)(C)C=C2C	27	-1	1	4	2	1	-14
N#CC1=C(N)C(C#N)(C#N)C(c2ccc[nH]2)C2CCCC=C12 (centres undefined)	-36	0	8	-5	-22	-1	6
Cc1ccc(-c2cc(C(=O)Nc3cccnc3)c3ccccc3n2)o1	-123	7	-3	-4	28	44	-13
CC(C)Cn1c(CCC(=O)O)ccc1-c1cccs1	-265	-9	9	8	-44	4	-2
CC1=C(C#N)C(c2cccnc2)C2=C(CC(C)(C)CC2=O)N1 (centres undefined)	i	5	-2	-10	-25	-14	2
O=C(c1cnn2c(C(F)(F)F)cc(-c3ccco3)nc12)N1CCCCCC1	-240	1	1	-4	-35	-22	3
CCN(CC)c1ccc(-c2nn3c(-c4ccccc4OC)nnc3s2)cc1	-301	7	-3	-9	-34	-5	5
Cc1cc(N)c(NC2=CC(=O)CC(C)(C)C2)cc1C	12	1	0	-3	-6	2	7
Cc1cccc2cc(C#N)c(N3CCCC3)nc12	-285	3	1	-9	-91	-8	1
CCN(CC)c1ccc(-c2c(C#N)c(N)nc(OC)c2C#N)cc1	-291	0	-1	-16	-24	-11	-9
CCCN1CC=C2C(C#N)=C(N)C(C#N)(C#N)C(c3cc(OC)ccc3OC)C2C1 (centres undefined)	-418	3	1	0	-28	5	1
CCS(=O)(=O)NCc1ccc2[nH]c3c(c2c1)CCCC3	·	·	5	15	·	·	-8
N=c1c(C(=O)NCc2ccccc2)cc2c(=O)n3ccccc3nc2n1CCCN1CCOCC1	i	-2	3	-10	-22	15	-1
CCCCn1c(=NC(C)=O)c(C#N)cc2c(=O)n3cccc(C)c3nc21	-452	4	7	1	-33	-12	1
COc1ccc(NCc2cc3cc(OC)ccc3[nH]c2=O)cc1	-288	5	4	23	2	73*	6
CCCC(=O)Nc1nn(C)c2nc3cc(C)ccc3cc12	·	·	-6	-19	·	·	-7
O=C(NCc1ccco1)C1CCN(c2ccc(N3CCOCC3)nn2)CC1	-365	-4	-11	-3	-43	3	4
CC1(C)CC(=O)C2=C(C1)N(c1cccc(O)c1)C1=C(C2)C(=O)CC(C)(C)C1	-144	-1	4	5	-20	7	8
COCCNc1c(-c2ccc(O)cc2)nc2ccc(Cl)cn12	-486	-2	-7	-15	-11	30	3

(next part)
SMILES	SENP8 block-1	HKDC1 inhibitor	SENP8 block-2	SENP6 inh	SENP1 inh	PfG6PD inh	SENP7 inh
Cc1cccn2c(=O)c3cc(C(=O)NCC4CCCO4)c(=N)n(Cc4cccnc4)c3nc12 (centres undefined)	i	-6	6	-16	-21	45	1
Cc1ccc2cc3c(NC(=O)c4ccco4)nn(C)c3nc2c1	-490	2	-12	-23	-16	7	-2
Cc1c(OC(=O)CNC(=O)OC(C)(C)C)ccc2c3c(c(=O)oc12)CCC3	-338	3	-6	2	-45	2	-1
COc1ccc2c(C=Nc3c(C)n(C)n(-c4ccccc4)c3=O)c(O)n(Cc3ccco3)c(=O)c2c1	-25&-56	3&-2	-10	-5	-22&-30	1&8	-1
CCN1CCN(c2cc3c(cc2F)c(=O)c(C(=O)O)cn3C2CC2)CC1	-377	-4	11	-16	0	-5	-3
CCN(CC)c1ccc(C2C(C(=O)OCCOC)=C(C)NC3=C2C(=O)CCC3)cc1 (centres undefined)	-70	-9	3	-8	-6	14	-2
Cc1ccccc1-n1nc(C)c2cc(C(=O)NCc3cccnc3)sc21	8	-11	9	-1	0	1	13
N#C/C=C1\Sc2ccccc2C(=O)N1CC(=O)N1CCN(S(=O)(=O)c2ccccc2)CC1	-7	12	-2	3	-156	14	0
CN1C(=O)c2ccccc2N(C)C1c1ccc2c(c1)OCO2 (centres undefined)	-498	-1	7	-17	-24	2	4
CCCC(=O)Nc1ncnc2c1ncn2[C@@H]1O[C@@H]2COP(=O)(O)O[C@H]2[C@H]1OC(=O)CCC	-1&9	-4&-9	-2	2	-1&0	-1&-2	-7
CC(C)n1c(=N)c(C(=O)NCCc2ccccc2)cc2c(=O)n3ccccc3nc21	-451	-5	2	1	-17	-6	-12
C=CCn1c(N)c(S(=O)(=O)c2cccs2)c2nc3ccccc3nc21	i	0	5	-4	-76	-1	4
Nc1ccc(-n2c(N)c(C(=O)NCc3ccc4c(c3)OCO4)c3nc4ccccc4nc32)cc1	-406	0	2	8	-63	-1	2
CCCCn1c(SCC(=O)NCc2ccco2)nc2ccc(N3CCOCC3)cc2c1=O	-282	7	-4	-5	-53	5	-11
COCCOC(=O)c1cc(C(=O)c2cc(F)ccc2O)coc1=N	-500	1	-5	-26	-39	-3	-2
CCNC(=O)c1cc2c(=O)n3cccc(C)c3nc2n(Cc2ccc(C)cc2)c1=N	-496	1	-5	-17	-16	49	7
CC(=O)N1CCN(c2nc3cc4c(cc3nc2NS(=O)(=O)c2ccccc2)OCCO4)CC1	-260	-3	-9	14	-65	4	1
Cc1cc2c3nonc3ccc2n1C	-166	-5	-11	-6	1	3	-15
O=c1c2cc(N3CCOCC3)ccc2[nH]c(=S)n1Cc1ccco1	-299	3	-7	8	-35	44	-9
Nc1cccc(-c2nc3ccc(N)cc3s2)c1	-403	5	94*	97*	-78	23	98*
CC(C)NC[C@@H](O)COc1cccc2ccccc12	12	-1	8	4	0	-7	-4
CC1(C)Cc2c(c(N3CCOCC3)nc3sc(-c4ccc(C(=O)O)o4)c(N)c23)CO1	i	0	-1	-4	-24	14	-4

One compound at a time, from the list above. Screens in order: SENP8 block-1	HKDC1 inhibitor	SENP8 block-2	SENP6 inh	SENP1 inh	PfG6PD inh	SENP7 inh
`O=C(c1cnn2c(C(F)(F)F)cc(-c3ccco3)nc12)N1CCCCCC1` across the screens: -240	1	1	-4	-35	-22	3
`CC(C)NC[C@@H](O)COc1cccc2ccccc12` across the screens: 12	-1	8	4	0	-7	-4
